# Screening data deposited in PubChem by Broad Institute.
# BJeLR viab HTS: compounds reducing viability of BJeLR cells; BJeLR fibroblasts viability, CellTiterGlo ATP luminescence, 48 h; HRASV12, hTERT and SV40 LT/ST transformed; viability loss activity score, % (concentration not given with the values); 0.64% of 30,000 active; AID 2275; in the data active means viability loss activity score above about 50%; about a fifth of its hits are not listed in these tables;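 further: higher score means fewer live cells and less ATP luminescence; stock transfer was 50 or 100 nL into about 30 µL; 0% = vehicle wells and 100% = a reference killing control; one replicate is shown; the record names a cut of 85%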
# A1 inhib: inhibitors of A1. 0.51% of 21,000 active. caspase activation, % (no concentration beside the values). MEF A1-2A-BIM cells, caspase-Glo luminescence, 3 h; percent of clofoctol signal, DMSO as zero. AID 2241;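 active means most replicate scores above 10, or exactly half above 10 with mean activity above 10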;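 further: effector caspase 3 and 7 activity cleaving a DEVD luciferin substrate; 50 nL library stock added to about 30 µL; numbers are from one replicate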
# * = called active by the depositor; x = not tested or not shown. Not all compounds are listed; the hit share may differ from the screen's.
# Every second line gives: BJeLR viab HTS	A1 inhib
- C[C@H]1CN([C@@H](C)CO)C(=O)c2cccc(NC(=O)Nc3ccc(C(F)(F)F)cc3)c2O[C@H]1CN(C)Cc1ccc(Oc2ccccc2)cc1
  -2.5	x
- CCCCC(=O)Nc1ccc2oc(-c3ccc(O)c(Br)c3)nc2c1
  17	-4.9
- C[C@@H]1CN([C@@H](C)CO)C(=O)c2cc(NC(=O)CCCN(C)C)ccc2O[C@H]1CN(C)Cc1ccc(C(=O)O)cc1
  -1.7	-0.2
- COc1ccc(NC(=O)Nc2ccc3c(c2)C(=O)N([C@H](C)CO)C[C@@H](C)[C@H](CN(C)Cc2ccc(Cl)c(Cl)c2)O3)cc1
  3.4	0.6
- CN1C(=O)c2ccccc2C(C(=O)NCCCN2CCCC2=O)C1c1cn(C)c2ccccc12 (stereo not given)
  -3.9	x
- COc1ccc2c(c1OC)OC[C@@H](c1ccc(OC)c(OC)c1OC)C2
  2.6	0.4
- O=C(CCc1nc2ncccc2c(=O)n1Cc1ccccc1Cl)N1CCN(c2ccccc2)CC1
  -4.3	-0.4
- Cc1nc(CCNS(=O)(=O)c2cccs2)cs1
  2.6	0.3
- Cc1oc(C(C)(C)C)cc1C(=O)C(C#N)=C1SCCS1
  3.0	-0.3
- CCNC(=S)Nc1ccc(NC(=O)c2ccccc2O)cc1
  3.3	-1.3
- C[C@@H]1CN([C@@H](C)CO)C(=O)c2cc(NC(=O)Nc3ccccc3)ccc2O[C@@H]1CN(C)Cc1ccc(C(=O)Nc2ccccc2N)cc1
  13	x
- c1cnc(N2CC[N+]3(CCCC3)CC2)nc1
  -0.5	0.4
- CC1(C)CC(=O)C(C2c3ccccc3Oc3ccccc32)C(=O)C1
  -1.6	0.9
- COc1ccc(NC(=O)N(C)C[C@@H]2Oc3ccc(NC(=O)CCC(F)(F)F)cc3C(=O)N([C@@H](C)CO)C[C@H]2C)cc1
  -2.3	-0.4
- O=C(O)c1ccc(C(F)(F)F)cc1C(F)(F)F
  0.2	-0.3
- C[C@@H]1CN([C@@H](C)CO)C(=O)c2cc(NC(=O)c3ccncc3)ccc2O[C@H]1CN(C)C(=O)Nc1ccccc1
  7.9	-0.2
- CC1(COc2ccc(CC3SC(=O)NC3=O)cc2)CCCCC1 (stereo not given)
  -7.1	-0.4
- Cc1c(C(=O)N2CCN(C)CC2)oc2c1C(=O)CC(C)(C)C2
  -5.7	0.2
- C[C@@H]1CN([C@H](C)CO)C(=O)c2cccc(NC(=O)c3ccncc3)c2O[C@H]1CN(C)C(=O)Nc1ccc(C(F)(F)F)cc1
  3.0	x
- C[C@@H]1CN([C@@H](C)CO)C(=O)c2cccc(NC(=O)c3ccncc3)c2O[C@@H]1CN(C)C(=O)Nc1ccc(F)cc1
  9.5	x
- Cc1ccc(S(=O)(=O)N(C)C[C@H]2Oc3ccc(NC(=O)CCCN(C)C)cc3C(=O)N([C@@H](C)CO)C[C@@H]2C)cc1
  7.4	0.1
- COc1ccc(NC(=O)N(C)C[C@H]2Oc3ccc(NS(=O)(=O)c4cccs4)cc3C(=O)N([C@H](C)CO)C[C@@H]2C)cc1
  -2.7	0.1
- Cc1cccn2c(=O)c3cc(C(=O)N4CCN(C)CC4)c(=N)n(Cc4cccnc4)c3nc12
  1.5	-0.5
- CCOC(=O)c1ccc(N2C(=O)C(C)C(Cc3cc(C)cc(C)c3)C2=O)cc1 (stereo not given)
  -1.4	0.3
- CN(C)C=Nc1cc(Cl)c(-n2cccc2)cc1Oc1ccc(Cl)cc1
  -7.3	0.3
- C[C@@H]1CN([C@@H](C)CO)C(=O)c2cccc(NS(=O)(=O)c3cccs3)c2O[C@H]1CN(C)S(=O)(=O)c1ccc(Cl)cc1
  0.0	x
- C[C@@H]1CN([C@@H](C)CO)C(=O)c2cc(NC(=O)CCCCCC(=O)Nc3ccccc3N)ccc2O[C@H]1CN(C)Cc1ccncc1
  2.0	x
- CNC[C@@H]1Oc2c(NC(=O)C3CCOCC3)cccc2C(=O)N([C@@H](C)CO)C[C@@H]1C
  -4.0	x
- C[C@@H]1CN([C@@H](C)CO)C(=O)c2cc(NC(=O)Cc3ccccc3)ccc2O[C@@H]1CN(C)S(=O)(=O)c1cn(C)cn1
  1.2	0.7
- Cc1ccc(-c2cn3cccnc3n2)cc1NC(=O)c1ccccc1
  0.1	x
- C[C@@H]1CN([C@H](C)CO)C(=O)c2cccc(NS(=O)(=O)c3ccc(Cl)cc3)c2O[C@H]1CN(C)Cc1ccc(-c2ccccc2)cc1
  1.5	x
- CCc1cccc(C)c1NC(C)=O
  6.7	0.6
- COc1ccc(-n2ncc(C(=O)NCc3ccc(-c4cccs4)cc3)c2C)cc1
  5.5	1.3
- O=C(NCc1cccs1)c1cc(=O)n(Cc2ccc(Cl)cc2)c2ccccc12
  -8.6	0.8
- C[C@@H]1CN([C@H](C)CO)C(=O)c2cccc(NC(=O)c3ccc(-c4nccs4)cc3)c2O[C@@H]1CN(C)Cc1ccccc1
  -4.0	x
- CCOC(=O)Nc1nc2ccc(C)cc2s1
  -1.8	-3.3
- C[C@H]1CN([C@@H](C)CO)C(=O)c2cc(NC(=O)Cn3cnnn3)ccc2O[C@H]1CN(C)C
  2.8	0.0
- C[C@@H]1CN([C@H](C)CO)C(=O)c2cccc(NC(=O)c3ccncc3)c2O[C@H]1CN(C)S(=O)(=O)c1ccc(Cl)cc1
  -1.0	x
- O=C(NC1CCCC1)c1ccc2c(c1)N(Cc1ccccc1)C(=O)CS2
  -0.1	1.0
- CNC[C@@H]1Oc2ccc(NC(=O)Nc3cccc4ccccc34)cc2C(=O)N([C@H](C)CO)C[C@H]1C
  -8.7	-0.3
- CCCCC[C@H](O)/C=C/[C@H]1C=CC(=O)[C@@H]1C/C=C\CCCC(=O)O
  -11	-0.6
- C[C@H]1CN([C@@H](C)CO)C(=O)c2cc(N(C)C)ccc2O[C@@H]1CN(C)S(=O)(=O)c1cn(C)cn1
  -0.7	0.4
- O=S(=O)(CCSc1nccc(-c2cccs2)n1)c1ccc(F)cc1
  0.6	x
- COc1cc(Nc2cnn(-c3nc4ccccc4s3)c(=O)c2Cl)cc(OC)c1
  -6.2	x
- COc1ccccc1N(CC(=O)NCC1CCCO1)S(=O)(=O)c1ccc(C)cc1 (stereo not given)
  6.0	-0.4
- CC(N=Cc1nc2ccccc2n1C)C12CC3CC(CC(C3)C1)C2 (stereo not given)
  3.2	0.9
- C[C@H](CO)N1C[C@H](C)[C@@H](CN(C)C(=O)Nc2ccc(C(F)(F)F)cc2)Oc2c(NC(=O)Nc3cccc4ccccc34)cccc2C1=O
  1.2	x
- C[C@H](CO)N1C[C@H](C)[C@H](CN(C)C(=O)Nc2ccccc2)Oc2c(NC(=O)Nc3cccc4ccccc34)cccc2C1=O
  0.2	x
- Cc1ccc(S(=O)(=O)c2nc(S(=O)(=O)c3ccc(C)cc3)c(NCc3ccco3)s2)cc1
  -2.0	0.1
- CN(CCC#N)S(=O)(=O)c1ccc2[nH]cc(C(=O)O)c(=O)c2c1
  4.2	0.4
- Cc1cccc(N2CCN(C(=O)CN3C(=O)c4ccccc4C3=O)CC2)c1C
  -2.5	1.2
- CCOC(=O)N1CCN(C(=O)c2ccc3c(c2)sc2nc(-c4ccc(OC)cc4)cn23)CC1
  -0.6	-0.4
- COc1ccccc1-c1coc2cc(OCC(=O)OCC(C)C)ccc2c1=O
  -2.8	-0.1
- Cc1ccc(C(=O)c2oc3ccccc3c2NC(=O)c2ccco2)cc1
  3.8	x
- Cc1ccc(S(=O)(=O)Nc2ccc3c(c2)C(=O)N([C@H](C)CO)C[C@H](C)[C@H](CN(C)S(=O)(=O)c2ccc(C)cc2)O3)cc1
  5.0	0.2
- Cc1cccc(N2CCN(CCNC(=S)Nc3c(C)cccc3C)CC2)c1C
  0.3	x
- COc1ccc(NC(=O)Nc2cccc3c2O[C@@H](CN(C)S(=O)(=O)c2cn(C)cn2)[C@@H](C)CN([C@H](C)CO)C3=O)cc1
  5.3	x
- COc1ccc2c(c1)OCC(Cc1ccc(OC)c(OC(C)=O)c1)C2=O (stereo not given)
  41	1.5
- C[C@@H]1CN([C@@H](C)CO)C(=O)c2cccc(N(C)C)c2O[C@H]1CN(C)S(C)(=O)=O
  -4.8	x
- C[C@H]1CN([C@@H](C)CO)C(=O)c2cc(NC(=O)CCC(F)(F)F)ccc2O[C@H]1CN(C)C(=O)Nc1ccc(F)cc1
  -5.1	0.4

# Copied from the list.
# Cc1ccc(S(=O)(=O)c2nc(S(=O)(=O)c3ccc(C)cc3)c(NCc3ccco3)s2)cc1 in BJeLR viab HTS has -2.0
# COc1ccc2c(c1)OCC(Cc1ccc(OC)c(OC(C)=O)c1)C2=O (stereo not given) in A1 inhib has 1.5
# COc1ccccc1N(CC(=O)NCC1CCCO1)S(=O)(=O)c1ccc(C)cc1 (stereo not given) in BJeLR viab HTS has 6.0

# (next part)
smiles,BJeLR viab HTS,A1 inhib
COc1ccc(Br)cc1CNC(=O)C1CCCN(c2nc3ccccc3o2)C1 (stereo not given),-2.9,0.1
CC(=O)N1CCOc2cc(S(=O)(=O)N3CCCCC3)ccc21,6.5,0.4
COc1ccc(S(=O)(=O)Nc2ccc3c(c2)C(=O)N([C@@H](C)CO)C[C@H](C)[C@@H](CN(C)Cc2ccc(Oc4ccccc4)cc2)O3)cc1,-0.6,-0.2
COc1ccc(NC(=O)Nc2ccc3c(c2)C(=O)N([C@@H](C)CO)C[C@H](C)[C@H](CN(C)C(=O)NC(C)C)O3)cc1,1.5,0.4
C[C@H](CO)N1C[C@H](C)[C@@H](CN(C)S(=O)(=O)c2cn(C)cn2)Oc2c(NC(=O)c3ccncc3)cccc2C1=O,0.2,x
CCCc1cc(N2CCN(c3ccccc3)CC2)n2c(nc3ccccc32)c1C#N,0.0,0.5
CN(C(=S)SCc1ccccc1)c1ccccc1,-2.8,0.3
C[C@@H]1CN([C@H](C)CO)C(=O)c2cccc(NC(=O)c3ccc(-c4nccs4)cc3)c2O[C@@H]1CN(C)Cc1ccc(C(=O)O)cc1,-1.3,x

# Three compounds out of the list above, arranged by the value under A1 inhib, descending:
compound | A1 inhib
COc1ccc(NC(=O)Nc2ccc3c(c2)C(=O)N([C@@H](C)CO)C[C@H](C)[C@H](CN(C)C(=O)NC(C)C)O3)cc1 | 0.4
CN(C(=S)SCc1ccccc1)c1ccccc1 | 0.3
COc1ccc(S(=O)(=O)Nc2ccc3c(c2)C(=O)N([C@@H](C)CO)C[C@H](C)[C@@H](CN(C)Cc2ccc(Oc4ccccc4)cc2)O3)cc1 | -0.2

# Continued:
smiles,BJeLR viab HTS,A1 inhib
COc1ccc(NC(=O)c2ccc3c(=O)n(Cc4ccco4)c(=S)[nH]c3c2)cc1OC,-4.4,-1.0
Cc1nn(-c2ccccc2)c(N)c1C(N)=S,2.1,-0.6
CCC(C)N1Cc2ccccc2N(CC)C1c1ccccc1F (stereo not given),-2.8,0.3
COC(=O)c1c(N)oc2c(-c3cccc(C(F)(F)F)c3)c3c(C(=O)OC)c(N)oc3cc12,-5.5,-0.6
COc1ccc(S(=O)(=O)Nc2cccc3c2O[C@@H](CN(C)S(=O)(=O)c2ccccc2)[C@@H](C)CN([C@@H](C)CO)C3=O)cc1,6.6,x
COc1ccc(S(=O)(=O)N(C)C[C@@H]2Oc3ccc(N(C)C)cc3C(=O)N([C@@H](C)CO)C[C@@H]2C)cc1,-3.1,-0.4
O=C(c1ccccc1)C1CCN(C(=O)Nc2ccc(Cl)cc2)CC1,1.2,-0.6
COc1ccc(C(=O)N=C2CCC(C#N)=C3c4cc(OC)c(OC)cc4CCN23)cc1,-5.2,x
O=C1CS/C(=N\C(=O)N2c3ccccc3Sc3ccccc32)N1,6.6,0.2
Cc1ccc(NS(=O)(=O)c2cc(C(=O)O)ccc2Br)cc1,-1.4,-0.3
CS(=O)(=O)c1ccc2nc(NC(=O)Oc3ccccc3)sc2c1,3.0,0.3
COC(=O)c1c(NC(=O)C2CCCC2)sc2c1CCCC2,0.6,-0.3
C[C@@H]1CN([C@H](C)CO)C(=O)c2cc(NC(=O)CCCCCC(=O)Nc3ccccc3N)ccc2O[C@@H]1CN(C)S(=O)(=O)c1ccccc1,4.7,x
CCCCCCCCCC/C=C\CCCCCCCc1cccc(O)c1C(=O)O,-11,-0.9
CNC(=O)Cn1cc2c(n1)CCC(C)C2 (stereo not given),0.7,0.4
COC(=O)c1ccc(OCC(O)Cn2c(C)[n+](C)c3ccccc32)cc1 (stereo not given),-0.8,-0.4

# For convenience, some entries already given.
smiles,BJeLR viab HTS,A1 inhib
O=C1CS/C(=N\C(=O)N2c3ccccc3Sc3ccccc32)N1,6.6,0.2
Cc1ccc(NS(=O)(=O)c2cc(C(=O)O)ccc2Br)cc1,-1.4,-0.3

# (more compounds)
smiles,BJeLR viab HTS,A1 inhib
C=C[C@@]12COC(=O)C(=C)C1[C@@H](O)[C@H](C(=C)C(=O)OC)[C@@H](OC(=O)C(=C)CO)C2 (stereo not given in full),-4.1,-0.5
Cc1noc(C)c1S(=O)(=O)Nc1ccc2c(c1)C(=O)N([C@@H](C)CO)C[C@H](C)[C@H](CN(C)CC1CCCCC1)O2,1.3,0.0
Cc1cc(C(=O)Nc2cccc3c2O[C@H](CN(C)C(=O)Nc2ccc4c(c2)OCO4)[C@@H](C)CN([C@@H](C)CO)C3=O)n(C)n1,1.8,x
Cc1ccc(-c2cc(C(=O)N3CCCCC3)c3ccccc3n2)cc1C,-4.2,-3.0
COc1ccc(CN(C)C[C@@H]2Oc3ccc(NS(=O)(=O)c4ccccc4)cc3C(=O)N([C@@H](C)CO)C[C@H]2C)cc1,2.2,-0.1
Cc1ccc(NC(=O)CSc2cc(=O)n(C)c3ccccc23)nc1,-3.4,x
COc1ccc(CC(=O)N2CCCCCC2)cc1OC,9.7,-0.8
C[C@]1(OC(=O)/C=C/c2ccccc2)C[C@@H](O)[C@]2(O)C=CO[C@@H](O[C@@H]3O[C@H](CO)[C@@H](O)[C@H](O)[C@H]3O)[C@@H]21,-2.4,0.6
FC(F)(F)c1ccc(-c2noc(-c3ccco3)n2)cc1,-2.7,-6.5
